Screening data deposited in PubChem by National Center for Advancing Translational Sciences (NCATS).
VACV mCherry inh – inhibitors of vaccinia virus infection (mCherry reporter signal); Vaccinia virus mCherry reporter infection, fluorescence; about a quarter of the inactives have no number; Potency, µM (titrated, usually from 36.5 µM), without a hit: top-dose activity change, negative = inhibition, hits mostly inhibitors; 0.63% of 310,000 active; active = well fitted inhibition curve with a large enough effect; inconclusive = small, poorly fitted or top-dose-only effect; inactive = no such curve, though single readings can be large or run the other way; tested in A549 cells; also: nearly all actives have a fitted effect of over 35% in size; inactives centre near -10
VACV Venus inh – vaccinia inhibition (Venus reporter). Vaccinia virus Venus reporter expression, fluorescence. Potency, µM (top dose mostly 36.5 µM), without a hit: top-dose activity change, negative = inhibition, actives largely listed as inhibitors. 0.46% of 330,000 active. AID 720580; active means well fitted inhibition curve with a large enough effect; inconclusive means small, poorly fitted or top-dose-only effect; inactive means no such curve, though single readings can be large or run the other way; tested in A549 cells; also: nearly all actives have a fitted effect of over 30% in size; inactives centre near -10
* marks the source's active call; other numbers are inactive results; i = inactive; ? = inconclusive; / = not tested or not shown; [ ] = another dose, or the depositor's remark. % is scaled to controls: 0 for no effect and ±100 for the full control effect; potency is read from the fitted curve at half-maximal effect.

SMILES | VACV mCherry inh | VACV Venus inh
COc1cc(C(=O)NCC(=O)Nc2c(C)cccc2C)ccc1OCC(=O)N1CCOCC1 | -20% | -14%
CCc1c(C)nc2[nH]nc(-c3ccccc3C)n2c1=O | / | -22%
Cc1cc(C)nc(SCCC(=O)Nc2ccccc2)n1 | -7% | -7%
COc1ccc2oc(C(=O)NNC(=O)c3ccc(F)cc3)c(C)c2c1 | i | -6%
CCCCN(CC)C(=O)CSc1nc2n[nH]c(C)c2c(=N)n1-c1cccc(OC)c1 | ? | ?
Cc1onc(-c2ccccc2Cl)c1C(=O)Nc1cccc(-c2nc3ncccn3c2C)c1 | -25% | -23%
COc1ccc2nc(C)cc(NCc3ccc(F)cc3)c2c1 | -11% | 33%[activator]
CCc1ccc(N2C(=O)CC(NNc3nc4ccccc4s3)C2=O)cc1 (centres undefined) | -15% | -10%
O=C1CCCN1C(=O)CCC(=O)N1CCCC1=O | -11% | -12%
CCOC(=O)c1c(C)[nH]c(C)c1C(=O)COC(=O)C1CCCN1S(=O)(=O)c1ccccc1F (centres undefined) | i | -5%
Cc1csc(CN(C)C(=O)CC2C(=O)NCCN2Cc2ccccc2C)n1 (centres undefined) | i | -17%
O=[N+]([O-])/C=C1/NCCN1Cc1ccc(Cl)nc1 | i | -6%
CCN(CC(=O)Nc1c(F)cccc1F)C(=O)CNC(=O)c1ccco1 | -9% | 2%
COc1ccc(N2C[C@H](Cc3ccccc3)[C@@H](CC(=O)Nc3ccccc3)C2=O)cc1 | -8% | -14%
COCCn1c(SCC(=O)Nc2ccccc2)nc2c(oc3ccccc32)c1=O | i | -19%
NCCSc1c(-c2ccccc2)[nH]c2ccccc12 | ? | -19%
CC(=O)c1cccc(NC(=O)CSc2nc(=O)n(CCN3CCOCC3)c3c2CCCC3)c1 | i | -12%
CC1CN(C(=S)NC(=O)c2ccc(Cl)cc2)CC(C)O1 (centres undefined) | -17% | -5%
COc1ccc(C(=O)N=C2CCC(C#N)=C3c4cc(OC)c(OC)cc4CCN23)cc1 | -4% | -22%
O=C(NCc1cccnc1)C(=O)Nc1ccc2c(c1)OCO2 | -8% | -6%
NC(=NCCc1ccc(Cl)cc1)NS(=O)(=O)c1ccc(F)cc1 | -15% | -23%
N#CCCn1cc(/C=N/NC(N)=S)c(-c2ccccc2)n1 | -25% | -21%
Cc1cccn2c(=O)c(C(=O)NC3CC(C)CC(C)(C)C3)c(O)nc12 (centres undefined) | i | -4%
CS(=O)(=O)N(CC(=O)NCC1CCCO1)c1cc(Cl)cc(Cl)c1 (centres undefined) | i | -4%
CS(=O)(=O)c1ccc(N)cc1 | i | -5%
CCN(CC)C(=O)CSc1nnc2sc3ccccc3n12 | -11% | -11%
CCN(CC)CCNC(=S)Nc1ccc2nc(N3CCN(C)CC3)cc(C)c2c1 | -16% | -27%
O=c1oc2ccc(Br)cc2cc1S(=O)(=O)c1ccc(F)cc1 | i | -9%
Cc1nnc(NC(=O)CSc2nc3c([nH]c4ccccc43)c(=O)n2-c2cccc(Cl)c2)s1 | -19% | -14%
COCc1cc(C)nc(SCc2ccc(F)cc2)c1C#N | i | -9%
COC(=O)[C@@]12C[C@@H](CC(=O)NCc3cccc4ccccc34)C(=O)N(Cc3ccc4c(c3)OCO4)C1=CCC(C)(C)C2 | ? | ?
COc1ccc(-c2nn3c(-c4ccco4)nnc3s2)cc1OC | ? | ?
Clc1ccc(Nc2nc(-c3ccccc3)c3cc(Cl)ccc3n2)cc1 | 0% | -16%
COC(=O)[C@@]1(Cc2ccc(F)cc2)[C@H]2c3cc(C(=O)N4CCCC4)n(Cc4ccc(OC(F)(F)F)cc4)c3C[C@H]2CN1C(=O)c1ccccc1 | -5% | -14%
O=C1COc2ccc(S(=O)(=O)Nc3ccc4c(c3)OCO4)cc2N1 | -27% | -13%
COc1cc(C2CC(=O)N(c3ccc(C)cc3)C(=O)C2)cc(OC)c1OC | -9%[7.34 µM] | -21%[7.34 µM]
CCOC(=O)C(C(=O)OCC)C(Nc1ccccc1)c1ccccc1 (centres undefined) | i | -12%
O=C(COC(=O)c1ccc(F)c(S(=O)(=O)N2CCOCC2)c1)NCc1ccc(F)cc1 | i | -7%
COc1ccc(CCN2C(=O)/C(=C\c3ccco3)SC2=S)cc1OC | i | 2%
O=C(NNc1nc(-c2ccc(Cl)cc2)cs1)c1ccco1 | ? | ?
O=C(NCc1cccs1)c1cnc2ccccn2c1=O | -18% | -22%
C[C@H]1CN([C@@H](C)CO)C(=O)CCCn2cc(nn2)CO[C@@H]1CN(C)C(=O)Nc1ccnc(N2CCOCC2)c1 | -25% | -3%
COc1cc(CC(=O)OCC(=O)N2CC(=O)Nc3ccccc32)cc(OC)c1OC | -2% | -5%
CCCNC(=O)C(Cc1ccccc1)NC(=O)c1cccc([N+](=O)[O-])c1 (centres undefined) | -1% | -6%
CCOC(=O)c1c(C)oc2ncnc(Nc3cc(Cl)ccc3OC)c12 | -14% | -7%
CCOC(=O)c1ccc(NC(=O)N2CCN(Cc3ccccc3)CC2)cc1 | i | -18%
CCCn1ncc(CN2CCC(N3CCC(C(=O)N4CCOCC4)CC3)CC2)c1C | i | -12%
C=C1c2nc3ccccc3n2C=C(c2ccc(C)cc2)N1c1ccccc1 | i | 4%
O=C(NC1CCCCC1)C(c1ccnc2ccccc12)n1c(=O)c(-c2ccco2)nc2ccccc21 (centres undefined) | 21% | 7%
O=C(Nc1ccc(-c2nc3cccnc3s2)cc1)C1CCCO1 (centres undefined) | i | -3%
CCCCC(=O)NC(=S)NNC(=O)CCc1ccccc1 | 4%[7.34 µM] | 14%[7.34 µM]
COc1ccc(CCNS(=O)(=O)c2ccc(C(=O)NCc3ccco3)cc2)cc1OC | ? | -9%
CC1=C(C(=O)OC(C)C)C(c2cncc(-c3ccc(F)cc3)c2)C(C#N)=C(N)O1 (centres undefined) | -16% | -6%
Cc1cc(C)cc(OCC(=O)Nc2ccc(CN3CCCCC3)cc2)c1 | -3% | -7%
NC(=O)c1nsc(C(=O)N(CC(=O)NCc2ccccc2)c2cccc(F)c2)c1N | i | 0%
COCCCn1cc(CN2CC(N3CCN(C)CC3)CS2(=O)=O)nn1 (centres undefined) | 1% | -4%
COc1ccc2c(C)c(CCC(=O)NCCc3ccc(Cl)cc3)c(=O)oc2c1 | -14% | -15%
Cc1[nH]c(-c2ccccn2)nc(=S)c1Cl | i | -5%
CC(NC(=O)c1ccccc1Cl)c1nnc(SCC(=O)Nc2ccc(C(=O)O)cc2)n1C (centres undefined) | -12% | -4%
COC(=O)CCC(=O)N1CCC(Oc2cccc(C(=O)NCc3ccccn3)c2)CC1 | i | -3%

An excerpt of these results, with two lines to a compound:
Screens in order: VACV mCherry inh, VACV Venus inh
- O=C1COc2ccc(S(=O)(=O)Nc3ccc4c(c3)OCO4)cc2N1
 : -27%, -13%
- COc1cc(C2CC(=O)N(c3ccc(C)cc3)C(=O)C2)cc(OC)c1OC
 : -9%[7.34 µM], -21%[7.34 µM]
- CCOC(=O)C(C(=O)OCC)C(Nc1ccccc1)c1ccccc1 (centres undefined)
 : i, -12%
- O=C(COC(=O)c1ccc(F)c(S(=O)(=O)N2CCOCC2)c1)NCc1ccc(F)cc1
 : i, -7%
- COc1ccc(CCN2C(=O)/C(=C\c3ccco3)SC2=S)cc1OC
 : i, 2%

(listing goes on)
| smiles | VACV mCherry inh | VACV Venus inh |
| --- | --- | --- |
| CCCNS(=O)(=O)c1ccc(CCC(=O)N2CCN(CC)CC2)cc1 | i | -5% |
| O=C(Nc1cc2ccc(O)cc2oc1=O)c1ccc(F)cc1 | -22% | -13% |
| O=C(C(=Cc1ccc(F)cc1)C(=O)c1ccccc1)c1ccccc1 | 13% | -2% |
| CCN(CCCNC(=O)c1cc(Nc2ccc(OC)cc2OC)nc2ccccc12)c1cccc(C)c1 | -23% | -17% |
| COc1ccc(-c2cc(C(F)(F)F)n3ncc(C(=O)NCC4CCCO4)c3n2)cc1OC (centres undefined) | i | -5% |
| O=C(CCCCCn1nnc2ccccc2c1=O)Nc1ccccc1F | -3% | -8% |
| Cc1ccccc1-c1nc(CS(=O)(=O)CC(=O)Nc2cc(Cl)cc(Cl)c2)c(C)o1 | -10% | -10% |
| COc1ccc(C(c2nnnn2C(C)C)N2CCN(C(=O)c3ccco3)CC2)cc1 (centres undefined) | -14% | -16% |
| Clc1ccc(-c2csc(N/N=C/c3ccco3)n2)cc1 | -31% | -30% |
| NC(Cc1ccc(C(F)(F)F)cc1)c1csc(NC(=O)NCCc2ccccc2)n1 (centres undefined) | ? | 11µM* |
| O=C(CC[C@H]1O[C@@H](n2cnc3c(NC(=O)c4ccccc4)ncnc32)[C@H](O)[C@@H]1O)NCC1CCCO1 (some centres undefined) | -1% | -8% |
| Cc1ccc(S(=O)(=O)NCC(=O)N(CC2CCCO2)C(C(=O)NC2CCCC2)C(C)C)cc1 (centres undefined) | 2% | 5% |
| COc1ccccc1NS(=O)(=O)c1ccc(O)c(C(=O)OCc2cccc([N+](=O)[O-])c2)c1 | -23% | -11% |
| COc1ccccc1NC(=O)CN1C(=O)C(C)Oc2ccccc21 (centres undefined) | -13% | -9% |
| CN1C[C@@H]2[C@@H]3C(=O)N(Cc4ccccc4)C(=O)[C@@H]3[C@](C)(C1=O)N2C(=O)c1ccc(C(F)(F)F)cc1 | -24% | -5% |
| Cc1c(C(=O)NCCc2ccc(Cl)cc2)cccc1-n1cnc2cccnc21 | -13% | -5% |
| CN(C)S(=O)(=O)c1ccc(C(=O)NCc2nnc(SCC(=O)c3ccccc3)o2)cc1 | i | -18% |
| O=C(/C=C/c1ccccc1)OCC(=O)c1ccc[nH]1 | -25% | 1% |
| CN(C)S(=O)(=O)c1ccc(C(=O)OCC2COC(C)(C)O2)cc1 (centres undefined) | 11% | -1% |
| Cc1nc(Cl)sc1C(=O)Nc1cc(F)cc(F)c1 | i | -10% |
| CCN(CC)S(=O)(=O)c1ccc2c(c1)N(CC(=O)NCc1ccccc1)C(=O)CS2 | -4% | -9% |
| CCOc1c(Cl)cnn(-c2ccc(C)cc2)c1=O | / | 5% |
| Cc1nn(C(C)C(=O)NCC2CCCO2)c(=O)c2c1sc1ccccc12 (centres undefined) | -13% | -11% |
| Cc1nn(CC(N)=O)c(=O)c2ccccc12 | / | -15% |
| CCCNC(=O)C1(C)CCCN(Cc2ccccc2Cl)C1 (centres undefined) | 38%[activator] | -1% |
| O=c1c2[nH]c3ccc(Br)cc3c2ncn1CCCn1ccnc1 | -29% | -11% |
| CCCc1ncc(CN2CCCCC2C(=O)Nc2ccc(Oc3ccccc3)nc2)cn1 (centres undefined) | -15% | -29% |
| CN(C(=O)C1CCC(CNS(=O)(=O)c2cccc3cccnc23)CC1)C1CCCCC1 (centres undefined) | -27% | -19% |
| CCOc1ccccc1Nc1nnc(C)c(=O)[nH]1 | -13% | ? |
| Oc1cc2c(cc1C(c1ccc(Br)cc1)N1CCCC1)OCO2 (centres undefined) | ? | -15% |
| Cc1cccc(C(=O)N2CCCC(c3nc(-c4ccc(F)cc4)no3)C2)c1 (centres undefined) | -27% | -16% |
| COc1cc(C(=O)N2CCC(n3cnc4cc(F)ccc43)CC2)cc(OC)c1OC | -1% | -6% |
| CC(=NCc1ccco1)c1c(O)n(-c2ccccc2C)c(=O)[nH]c1=O | -7% | -15% |
| CC(C)(C)C(=O)OCc1nc(-c2ccc(F)cc2)cs1 | -9% | 1% |
| CCOc1ccc2nc(N3CCCC(C(=O)NCCc4ccc(Cl)cc4)C3)sc2c1 (centres undefined) | -11% | -21% |
| O=C(c1ccc(CS(=O)c2cccc(Cl)c2)o1)N1CCOCC1 (centres undefined) | -1%[7.34 µM] | 13%[7.34 µM] |
| C=CCNc1nc(N)c(C(=C(C#N)C#N)c2ccc(Br)cc2)s1 | -24% | ? |
| COC(=O)c1cnc(NC(=O)C2(C)CCCN(C(C)=O)C2)s1 (centres undefined) | 24% | 3% |
| COc1cnc(-c2ccccc2)[nH]c1=O | i | -16% |
| COc1ccc(CC(=O)OC(C)CN2CCCCC2)cc1 (centres undefined) | i | -6% |
| CC(NCc1ccccc1)c1ccccc1O (centres undefined) | -12% | -2% |
| Cc1nc(CC(=O)Nc2nccs2)cs1 | i | 5% |
| CCCCCNc1nc(NCCCO)c(C#N)c2c1CN(C)CC2 | / | -21% |
| On1cnnc1-c1ccccc1 | / | -17% |

3 entries from above, with values under each structure.
Fields: VACV mCherry inh	VACV Venus inh
C=CCNc1nc(N)c(C(=C(C#N)C#N)c2ccc(Br)cc2)s1
→ -24%	?
CCOc1ccc2nc(N3CCCC(C(=O)NCCc4ccc(Cl)cc4)C3)sc2c1 (centres undefined)
→ -11%	-21%
CCCCCNc1nc(NCCCO)c(C#N)c2c1CN(C)CC2
→ /	-21%

By substructure: the entries above with a nitro group on carbon.
| smiles | VACV mCherry inh | VACV Venus inh |
| --- | --- | --- |
| O=[N+]([O-])/C=C1/NCCN1Cc1ccc(Cl)nc1 | i | -6% |
| CCCNC(=O)C(Cc1ccccc1)NC(=O)c1cccc([N+](=O)[O-])c1 (centres undefined) | -1% | -6% |
| COc1ccccc1NS(=O)(=O)c1ccc(O)c(C(=O)OCc2cccc([N+](=O)[O-])c2)c1 | -23% | -11% |
